Source: PubChem BioAssay (ICCB-Longwood Screening Facility, Harvard Medical School)
Ba CapD inh – blocks the Bacillus anthracis CapD enzyme; purified CapD enzyme, fluorescence intensity read-out; stronger effect = lower value; some hits fall short of the stated cut; z-score (no concentration beside the values); hit rate 0.23% among 140,000; AID 492967;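 active = z-score under -4 in either of two replicates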;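 also: stock transfer was 100 nL into about 40 µL; score is relative to mean and spread of the plate; one replicate is shown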
AID504770 – E. coli YBA685 growth inhibition, screen for V. cholerae RctB inhibitors | hit rate 0.27% among 130,000 | z-score (concentration not given with the values) | E. coli YBA685 rctB-dependent plasmid, OD600 growth, 3 h; stronger effect = lower value;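 active = z-score under -2 on both plates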;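 also: wells of about 30 µL received 100 nL stock; score is relative to mean and SD of the test wells; the first replicate is given; strong numbers were not always called active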
Numbers without * were called inactive; . = no result given; & = joins results of further samples.

SMILES	Ba CapD inh	AID504770
c1ccc(-c2noc(NC3CC3)n2)cc1	1	0.15
COc1ccccc1NC(=O)N1CCc2c(F)c(F)c(F)c(F)c21	-0.55	.
Clc1ccc(Cn2nnc3ccccc32)cc1Cl	.	1.3
CC(=N)c1c(O)c2ccccc2oc1=O	-0.53	-0.5
COc1cc(/C=C/C(=O)O)ccc1O	.	0.2
CCOC(=O)c1c[nH]n2c(=O)cc(-c3ccccc3)nc12	31	-1.1
O=S(=O)(Cc1ccccc1)c1ccc(C(F)(F)F)cn1	0.22	-0.7
C/C=C/COC(=O)C1=C(C)NC(=O)NC1c1ccc(OCc2ccccc2)c(OC)c1 (centres undefined)	0.005	.
Cc1[nH]c2nc3ccccc3n2c(=O)c1CCC(C)C	0.13	1.6
N#Cc1ccccc1Cn1c(=O)n(-c2ccc(CC(=O)Nc3ccccc3)cc2)c(=O)c2sccc21	11	2.2
Cn1cc(S(=O)(=O)Nc2ccc(Oc3c(Cl)cccc3Cl)nc2)cn1	0.88	0.35
COc1ccc(NC2=NS(=O)(=O)C(c3ccccc3)=C2C)cc1	0.09	-0.9
O=C(O)CCNC(=O)c1cccnc1	7.1	1.2
COc1ccc2cc(C(=O)O)ccc2c1	3.3	0.15
CCOC(=O)C1=CN(Cc2ccc(F)cc2)C=C(C(=O)OCC)C1c1cc(Br)c(OCC)c(OC)c1	4.2	.
O=C(NCC1COc2ccccc2O1)c1cccs1 (centres undefined)	.	1.2
CN(C)c1ncnc2c1ncn2C1OC(CO)C(N)C1O (centres undefined)	0	-0.15
Cc1cc(NS(=O)(=O)c2ccc(NC(=O)C3COc4ccccc4O3)cc2)nc(C)n1 (centres undefined)	0.02	0.9
Cc1ccc(-n2nc(C)c3c(C)onc3c2=O)cc1	9.3	1.1
O=[N+]([O-])c1ccc(Oc2c(Cl)cc(S(=O)(=O)N3CCCCC3)cc2Cl)c(Cl)c1	-0.4	.
CC1CN(c2ccc(NC(=S)NCc3ccco3)cc2)CC(C)O1 (centres undefined)	-0.095	-0.3
O=C(NCc1ccccn1)c1ccc(COc2ccc(Cl)cc2)o1	-0.22	-0.2
CN(C)c1nc(Oc2ccc(=O)n(-c3ccccc3)n2)nc(N(C)C)n1	-0.26	.
Cc1ccc(-c2nc3nc[nH]n3c2Nc2ccccc2)cc1	1.2	1.9
CC(C)(C)NS(=O)(=O)c1cccs1	0.38	0.1
Cc1ccc(NC(=O)CC2SC(N)=NC2=O)cc1C (centres undefined)	-0.22	0.75
COc1ccc(OCC(=O)NN)cc1	0.65	-0.2
CCOC(=O)c1cc2cc(Cl)cc(Cl)c2oc1=O	1	.
CC1CC(C)CN(C(=O)c2ccc(-n3c(=S)[nH]c4ccccc4c3=O)cc2)C1 (centres undefined)	13	0
Cc1ccc(C(C)C)c(OCC(=O)OCC(N)=O)c1	.	0.05
O=C(CCCn1c(=O)oc2ccccc21)NNc1c(F)c(F)cc(F)c1F	.	-1.4
O=C(CNS(=O)(=O)c1cccc2nsnc12)NNC(=O)OCCSc1ncc2ccccn12	1.4	.
N#Cc1ccc(N2C(=O)CSC(c3ccccc3)C2=O)cc1 (centres undefined)	-0.51	-0.5
COC(=O)C1=C(NC(=O)Cc2cccs2)CCS1	.	-0.05
O=C1CSCN1Cc1cc(Cl)cc(Cl)c1	0.86	0.25
CCc1ccccc1N1CCN(C(=O)OCCSCCNC(=O)c2sc3ccccc3c2Cl)CC1	-1.2	.
CCCC1=C(C(=O)OCC)C(c2ccccc2)C(C#N)=C(N)O1 (centres undefined)	0.58	-0.7
c1ccc(Cn2c(NCc3cccs3)nc3ccccc32)cc1	0.25	-0.65
CN(C)c1ccc(C2CC(c3cccs3)=NN2C(=O)CCC(=O)O)cc1 (centres undefined)	-0.71	.
O=C(COC(=O)Cc1cccs1)NCc1ccc2c(c1)OCO2	.	0.1
COc1ccc(-c2nn(-c3ccccc3)cc2/C=C2/NC(=S)N(c3ccccc3)C2=O)cc1	0.065	.
CCC1=Nc2cc(C(=O)N(C)Cc3ccccc3)ccc2Sc2ccc(C)cc21	0.18	-0.15
Cc1ccc(-c2c(C)sc3ncn(CC(=O)O)c(=O)c23)cc1C	-0.28	-0.65
CC1=C(N(C)c2ccccc2)C(=O)N(C2CCCCC2)C1	-0.095	-0.55
O=C(c1cc(-c2cccnc2)nc2ccccc12)N1CCC2(CC1)OCCO2	-0.11	-0.4

Profiles, looked up by structure.
COc1ccc(-c2nn(-c3ccccc3)cc2/C=C2/NC(=S)N(c3ccccc3)C2=O)cc1 across the screens: Ba CapD inh: 0.065; AID504770: .
COC(=O)C1=C(NC(=O)Cc2cccs2)CCS1 across the screens: Ba CapD inh: .; AID504770: -0.05
N#Cc1ccc(N2C(=O)CSC(c3ccccc3)C2=O)cc1 (centres undefined) across the screens: Ba CapD inh: -0.51; AID504770: -0.5

Given as comma-separated lines: four of the compounds above.
mol,Ba CapD inh,AID504770
O=C(CNS(=O)(=O)c1cccc2nsnc12)NNC(=O)OCCSc1ncc2ccccn12,1.4,.
N#Cc1ccc(N2C(=O)CSC(c3ccccc3)C2=O)cc1 (centres undefined),-0.51,-0.5
COC(=O)C1=C(NC(=O)Cc2cccs2)CCS1,.,-0.05
O=C1CSCN1Cc1cc(Cl)cc(Cl)c1,0.86,0.25

Other compounds follow:
SMILES	Ba CapD inh	AID504770
CC(C(=O)Nc1ccc(S(=O)(=O)N2CCOCC2)cc1)N1CCN(c2ccccn2)CC1 (centres undefined)	.	0.1
COc1cc2cc(CN(Cc3ccc4c(c3)OCO4)C(=O)NCc3ccccc3)c(=O)[nH]c2cc1OC	.	2
CC1CCCC(NC(=O)CSc2ncn[nH]2)C1C (centres undefined)	.	-1
COc1cc(NC(=O)COc2ccc(F)cc2)nc(OC)n1	0.4	-0.15
CN(C(=O)c1ccc2nccnc2c1)C1CCCCC1	0.28	-0.05
COc1cccc(C2CC(c3ccc(C)cc3)=NN2C(=O)CCC(=O)O)c1OC (centres undefined)	-0.005	.
FC(F)(F)c1ccc(-c2[nH]ncc2-c2cnc3ccccc3n2)cc1	-0.075	.
CCOC(=O)C(O)(c1ccc(N)c(OC)c1)C(F)(F)F (centres undefined)	0.14	.
CC(=O)Nc1nc(-c2ccccc2)c(C(=O)c2ccccc2)s1	-1.3	-0.55
CN1CCc2c(sc(N)c2C(=O)c2ccc(Cl)cc2)C1	1.6	-0.25
CC(O)Cn1c(N(C)Cc2ccccc2)nc2c1c(=O)n(C)c(=O)n2C (centres undefined)	.	-0.25
CCOc1ccc(-n2c(Cc3cc(=O)[nH]c(=O)[nH]3)nnc2SCC(=O)Nc2ccccc2F)cc1	-0.16	0.5
CCC1CCCCN1C(=O)c1cc(-c2ccc(F)cc2)no1 (centres undefined)	-0.12	0.1
CC(CN1c2ccccc2Sc2ccccc21)N(C)C (centres undefined)	1.2&1.9	0
CCOC(=O)c1c(C)n(-c2ccc(OC)cc2)c2ccc(OCC(N)=O)cc12	0.62	-0.15
CCOc1ccc2nc(SCC(=O)Nc3ncc(C(F)(F)F)cc3Cl)sc2c1	0.28	.
CCOc1cc(O)c(-c2[nH]ncc2Oc2ccccc2)cc1CC	-0.76	-1.5
O=C(O)C1CCC(C(=O)O)C1 (centres undefined)	.	1.7
CCCN1CCC2(CC1)C1CN(CCC)CC=C1C(C#N)=C(N)C2(C#N)C#N (centres undefined)	1.9	0.7
CCOC(=O)N/N=C/c1ccc(Sc2ccc(Cl)cc2)o1	0.46	-0.55
O=S(=O)(c1ccc2nsnc2c1)N1CCCCC1c1cccnc1 (centres undefined)	-1	0.05
O=C(Nc1ccc(F)cc1)N1CCCN(c2ccc(C(F)(F)F)cn2)CC1	4.3	1.4
CCOC(=O)C1(CC)CC(CSc2nc3ccccc3[nH]2)OC1=O (centres undefined)	-0.56	.
CCCNc1nc(NC2CCCCC2)nc(OC(C)C)n1	0.26	-0.75
CC12c3ccccc3C(C)(c3ccccc31)C1C(=O)N(c3cccc(C(=O)O)c3)C(=O)C12 (centres undefined)	-0.095	.
COc1ccc(OC)c(C(=O)c2ccc(Cl)cc2)c1	-0.16	0.35
COC(=O)c1ccc(/C=C/c2cccc(Cl)c2)s1	19	.
O=C(NCCC(c1ccccc1)c1ccccc1)C1=COCCO1	-0.11	-0.4
O=C(O)CCCN=C1NC2(CCCC2)Cc2ccccc21	0.065	-1.1
Cc1noc(C)c1CC(=O)Nc1ccccc1N1CCCCC1	.	0.75

The last two compounds of the part above lead into the next.
SMILES	Ba CapD inh	AID504770
O=C(O)CCCN=C1NC2(CCCC2)Cc2ccccc21	0.065	-1.1
Cc1noc(C)c1CC(=O)Nc1ccccc1N1CCCCC1	.	0.75
CC(=O)N1N=C(c2c(-c3ccccc3)c3cc(Cl)ccc3n(C)c2=O)CC1c1ccco1 (centres undefined)	.	-0.75
CC(=O)OCC1OC(n2cc(Br)c(=O)[nH]c2=O)C(OC(C)=O)C1OC(C)=O (centres undefined)	-0.41	.
CCOC(=O)NC(=O)c1cn(Cc2ccco2)c(=O)[nH]c1=O	0.37	-0.9
COc1ccc(OCCOc2ccccc2F)cc1	-0.14	1.4
CCC(Sc1nc(Nc2cc(OC)cc(OC)c2)c2ccccc2n1)C(=O)NCc1ccco1 (centres undefined)	-0.85	.
CCc1nnc2c(Nc3ccc(F)cc3)nc3ccccc3n12	0.18	-1.4
CCOC(=O)c1c(NC(=O)Cc2ccc(Cl)cc2)sc(C(=O)Nc2cccc(OC)c2)c1C	0.92	.
C=CCn1c(CC(=O)Nc2cccc(OC)c2)nnc1SCC(=O)NC1CCCCC1	0.56	-0.2
Cc1cccc(N(CC(=O)Nc2cccnc2)S(C)(=O)=O)c1C	0.23	0.1
CC(C)=C1N=C(c2cccs2)OC1=O	.	-1.4
CCOC(=O)Cc1cn2ccsc2n1	0.46	-0.5
Cc1cc2cc(CNC(=O)CCCc3ccccc3)ccc2[nH]1	-0.17	-0.05
CN(C)c1ccc(/C=C2\CCC(=C3CCCC3)C2=O)cc1	.	0.5
O=C(O)c1c(F)cccc1I	-2.9*	-0.8
O=c1oc(-c2ccco2)nc2ccccc12	.	-0.65
O=C(O)c1cc(N2C(=O)c3ccc([N+](=O)[O-])c4c([N+](=O)[O-])ccc(c34)C2=O)ccc1Cl	-1.8	.
O=C(Nc1ccc(Cl)c(Cl)c1)OCc1ccco1	0.18	0.45
NC(=O)N/N=C/c1cc(F)cc(F)c1	0.32	.
Cc1nc(-c2ncc(-c3ccccc3)o2)c(C(F)(F)F)o1	51	0.2
Cc1cccn2c(=O)c(/C=C3\SC(=S)N(Cc4ccccc4)C3=O)c(N3CCC(C)CC3)nc12	-0.27	.
O=C(CC1SC(Cc2ccccc2Cl)=NC1=O)Nc1ccccc1 (centres undefined)	-1.1	0.15
O=C(N1CCCCC1)N1CCC(c2nc3ccccc3[nH]2)CC1	.	1.4
C=CCc1ccc(OCCOc2ccc(-c3nc4sc5c(c4c(=O)[nH]3)CCCC5)cc2)c(OC)c1	0.09	.
CC1(C)CC(=O)C2=C(C1)OC(N)=C(C#N)C2c1ccccc1OC(=O)c1ccccc1Cl (centres undefined)	0.31	.
COc1cc(C(=O)N2c3ccccc3N3C(c4c(C)c(Cl)c(C)c(Cl)c4C)=NON23)cc(OC)c1OC	0.16	.
CN(C)Cn1c(O)c(N=NC(=O)c2ccccc2)c2ccccc21	.	0.7
O=C(NCc1cccs1)C1CCCN(S(=O)(=O)c2cccnc2)C1 (centres undefined)	-1.7	-0.45
O=C(CCC(=O)c1ccc(F)cc1)c1ccc(F)cc1	0.04	-0.25
CCCC1(CCC)NC(=S)N(c2ccc(C)cc2)N1	-0.12	.
CCN(C(=O)CSc1nc2cc(C(=O)OC)ccc2c(=O)n1CCc1ccc(S(N)(=O)=O)cc1)c1cccc(C)c1	1.1	.

Arranged by molecular weight (descending): part of the list above.
SMILES	Ba CapD inh	AID504770
COc1cc(C(=O)N2c3ccccc3N3C(c4c(C)c(Cl)c(C)c(Cl)c4C)=NON23)cc(OC)c1OC	0.16	.
Cc1cccn2c(=O)c(/C=C3\SC(=S)N(Cc4ccccc4)C3=O)c(N3CCC(C)CC3)nc12	-0.27	.
CC1(C)CC(=O)C2=C(C1)OC(N)=C(C#N)C2c1ccccc1OC(=O)c1ccccc1Cl (centres undefined)	0.31	.

The results go on.
SMILES	Ba CapD inh	AID504770
Cc1ccc(Cl)cc1N1CCN(C(=O)c2cc3c(=O)[nH]c4ccccc4c3n2C)CC1	0.27	0.9
CC(O)CNCc1ccc(-c2ccccc2)o1 (centres undefined)	.	-0.1
O=C(Cn1cc(/C=c2/sc3nc4ccccc4n3c2=O)c2ccccc21)Nc1ccccc1	0.29	.
COc1ccc(OC)c(NC(=O)Cn2cc(C(=O)c3ccco3)c3ccccc32)c1	-1	-0.5
O=C(CN1C(=O)C2(OCCO2)c2ccccc21)c1ccc(C(F)(F)F)cc1	0.085	.
Cn1cc(NC(=O)Nc2ccc(S(=O)(=O)N3CCCCC3)cc2)c2ccccc2c1=O	1.1	0.25
Cc1cccc(C)c1OCc1nnc(CCc2ccccc2)o1	0.49	0.35
O=C(N/N=C/c1ccccc1)C(O)c1ccccc1 (centres undefined)	.	-0.7
COc1cccc(-n2cc(C(=O)N3CCC(C)CC3)c3ccccc3c2=O)c1	5.9	0
C=CCSc1ncnc2c1sc1nc(N3CCOCC3)c3c(c12)CCCC3	-0.85	-0.7
CS/C(=N\S(=O)(=O)c1ccccc1)Nc1c(C)nn(C)c1C	-0.36	1.5
COc1cc(OC)cc(-n2c(=O)[nH]c3cc(C(=O)O)ccc3c2=O)c1	0.065	0.8
Cc1ccc(C(=O)CSc2nnc(-c3ccc(C(C)(C)C)cc3)o2)cc1	-1.1	.
O=c1c(=O)n(-c2ccc3c(c2)OCO3)ccn1Cc1ccc(F)cc1Cl	.	-0.85
COC(=O)COc1ccccc1/C=C1\C(=O)NC(=O)N(c2ccc(Br)cc2)C1=O	1.2	.
CCCN1C(=O)/C(=C2\SC(=S)N(NC(=O)c3ccccc3Cl)C2=O)c2ccccc21	-0.51	.
COc1nc2c(s1)C(=O)NCCC2	-0.15	0
